# Mtb H37Rv = M. tuberculosis H37Rv growth inhibitors, H37Rv strain (AID 1626); 220,000 compounds, 0.95% hits; inhibition, % at 10 µM, or IC50 in µM where a hit was titrated; M. tuberculosis H37Rv growth inhibition; higher % means a stronger effect;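 active = confirmed in a dose series; inconclusive = inhibition above 80% but not taken into the dose series; inactive = below 80% or under 30% at every dose of the series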;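 note: bacteria incubated seven days before Alamar blue readout; 0% = bacteria only wells and 100% = bacteria with antibiotic wells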
# RecA intein inh = blocks M. tuberculosis RecA intein splicing | inhibition, %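 (about 9 µM by stock and volumes)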 | 290,000 compounds, 0.75% hits | cell-free RecA intein splicing, fluorescence | AID 2221 | P9WHJ3; in the data active = inhibition above about 30%; inconclusive = no clear call, values can overlap the other calls;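 note: 0% = vehicle wells and 100% = reference inhibitor control wells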
# Target sequence (P9WHJ3 whole entry, looked up): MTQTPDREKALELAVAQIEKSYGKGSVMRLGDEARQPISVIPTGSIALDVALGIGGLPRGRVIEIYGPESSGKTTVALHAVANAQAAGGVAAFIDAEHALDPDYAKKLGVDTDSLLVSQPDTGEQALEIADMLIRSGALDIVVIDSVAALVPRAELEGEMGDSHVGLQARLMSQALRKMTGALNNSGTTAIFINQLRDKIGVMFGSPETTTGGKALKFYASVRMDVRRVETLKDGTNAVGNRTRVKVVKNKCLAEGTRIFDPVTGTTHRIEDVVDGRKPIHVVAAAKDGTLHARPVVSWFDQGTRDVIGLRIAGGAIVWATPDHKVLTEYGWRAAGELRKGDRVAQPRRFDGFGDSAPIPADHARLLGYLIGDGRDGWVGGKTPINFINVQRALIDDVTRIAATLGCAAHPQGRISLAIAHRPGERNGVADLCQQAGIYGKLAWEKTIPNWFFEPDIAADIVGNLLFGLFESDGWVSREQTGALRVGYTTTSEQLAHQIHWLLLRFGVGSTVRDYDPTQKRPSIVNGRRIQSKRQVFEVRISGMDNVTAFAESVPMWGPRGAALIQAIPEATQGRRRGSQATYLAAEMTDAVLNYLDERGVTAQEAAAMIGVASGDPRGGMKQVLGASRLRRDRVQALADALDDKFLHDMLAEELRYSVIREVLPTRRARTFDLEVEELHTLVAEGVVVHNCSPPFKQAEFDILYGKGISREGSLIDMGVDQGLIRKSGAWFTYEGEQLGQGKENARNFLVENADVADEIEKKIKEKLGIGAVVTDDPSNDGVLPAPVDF
# Arbovirus inh = arbovirus infection inhibition | AID 1251 | arbovirus infection cell-based antiviral screen | 200,000 compounds, 0.37% hits | inhibition, % at 10 µM;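 active = inhibition from about 30%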;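 note: bluetongue infection of BSR cells; cell survival read as ATP light after 72 h; 0% = infected wells without compound and 100% = uninfected wells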
# Mtb bLac sens = beta-lactam sensitization of Mtb H37Rv; M. tuberculosis H37Rv growth with meropenem, percent inhibition; hits of this screen are not shown here; inhibition, % at 25 µM; 330,000 compounds, 0.27% hits;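 active = about 74% or more and at least 40 points above the plate without the antibiotic, then above 30% in a dose series; inconclusive = first-round hits that could not be retested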;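 note: growth measured after seven days incubation then overnight dye step; 0% = bacteria only wells and 100% = bacteria with antibiotic; twin plates without the antibiotic show which effects depend on it; some results filed as inactive read as strong as hits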
# YopH PTP inh = YopH (Yersinia) phosphatase inhibition; fluorescence Ex485/Em525; 140,000 compounds, 0.16% hits; inhibition, %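 (about 10 µM by stock and volumes)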; AID 898;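 active = inhibition of 50% or more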;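 note: controls were vehicle for no effect and minimum signal wells for full effect; inactives centre near -20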
# Arbovirus inh repeat = also measured in Arbovirus inh; calls as there; inhibition, %; measured here: 10K subset replicate screen; many hits read low in the repeat;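 first of two repeat runs on a subset; 0% = infected and 100% = uninfected wells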
# Numbers without * were called inactive; i = inactive; ? = inconclusive; . = no result given. An excerpt, so the mix of outcomes need not match the whole.
SMILES,Mtb H37Rv,RecA intein inh,Arbovirus inh,Mtb bLac sens,YopH PTP inh,others
COc1ccc(S(=O)(=O)NCCCn2ccnc2)cc1Cl,.,-2.7,.,8,.,
CCn1cc(/C=C(\NC(=O)c2ccc(OC)c(OC)c2)C(=O)NCCCO)c2ccccc21,8%,-4.4,3,4,.,
CCS(=O)(=O)Nc1cc2c3c(c1)CCC(=O)N3CCC2,.,1.1,.,4,.,
COc1cc(C(=O)NCc2ccncc2)cc(OC)c1OC,-6%,4.3,1,-11,.,
COc1ccccc1N(Cc1ccccc1)S(=O)(=O)c1cccc(C(=O)Nc2ccccn2)c1,.,5.0,.,-7,.,
CCc1ccc(NC(=O)COC(=O)c2cccs2)cc1,.,1.8,.,-8,.,
CC1CCN(C(=O)c2cccc(S(=O)(=O)N3CCN(c4ccccc4)CC3)c2)CC1,.,-4.6,.,1,.,
O=C(OCc1cnc(Cl)s1)c1ccccc1Cl,-2%,1.9,-1,-2,-3,
Cc1ccc(NC(=O)CN2CCOCC2)cc1Cl,.,1.4,.,-3,.,
COc1ccccc1NC(=O)N1CCCC1C(=O)NCc1ccccc1 (centres undefined),-6%,0.4,-1,1,-35,
O=C(COC(=O)/C=C/c1cccc(C(F)(F)F)c1)NCc1ccco1,.,-0.5,.,-2,.,
CC(C)(CC(=O)O)CC(=O)Nc1ccc(Cl)c(Cl)c1,-14%,1.1,.,-5,.,
CC(C)Sc1nc2c([nH]c3ccccc32)c(=O)n1C,4%,-3.4,5,-2,.,
CCN(CC)c1ccc2cc(C(N)=O)c(=N)oc2c1,2%,i,-2,2,.,
COc1ccc(C(=O)/C=C/c2ccc(-c3ccccc3)cc2)cc1CSCC(=O)O,.,26,.,17,.,
COc1cc(C(c2nnnn2C2CCCC2)N2CCN(C(=O)c3ccco3)CC2)cc(OC)c1OC (centres undefined),.,1.4,.,0,.,
NC(=O)c1ccccc1N/C=C/C(=O)c1ccc(Cl)cc1,-5%,-12,-14,-8,-6,
COc1ccc(C)cc1S(=O)(=O)N(C)CC(=O)NCc1ccco1,2%,-3.2,-7,-3,30,
Cc1ccc(S(=O)(=O)CCC#N)cc1,12%,-0.3,.,-2,.,
CSCC[C@H](NC(=O)CC(C)(C)C)c1nc2ccccc2[nH]1,3%,-2.8,-3,-7,-3,

# Reprinted from above (2 entries):
SMILES,Mtb H37Rv,RecA intein inh,Arbovirus inh,Mtb bLac sens,YopH PTP inh,others
Cc1ccc(S(=O)(=O)CCC#N)cc1,12%,-0.3,.,-2,.,
CSCC[C@H](NC(=O)CC(C)(C)C)c1nc2ccccc2[nH]1,3%,-2.8,-3,-7,-3,

# (more compounds)
SMILES,Mtb H37Rv,RecA intein inh,Arbovirus inh,Mtb bLac sens,YopH PTP inh,others
COc1ccc(/C=C(\NC(=O)c2ccco2)C(=O)Nc2ccc(C(C)=O)cc2)cc1,.,0.2,.,0,.,
COc1ccc(Cn2nnnc2C(c2cc3cccc(C)c3[nH]c2=O)N2CCOCC2)cc1 (centres undefined),3%,-1.3,8,-3,-12,
O=C(O)c1cccc(N/N=C/c2ccc(OC(F)(F)F)cc2)c1,.,1.4,.,3,.,
O=C(Nc1ccc(S(=O)(=O)NC2CCCC2)cc1)c1cnccn1,-4%,-1.2,8,-19,9,
CC1(C)C(C=C(Cl)Cl)C1C(=O)N(Cc1ccccc1Cl)C1CCS(=O)(=O)C1 (centres undefined),3%,8.8,-13,4,-20,
Cc1ccsc1/C=N/NC(=O)c1ccc2c(c1)OCCO2,20%,0.2,.,-10,.,
O=C(Nc1ccccc1OC(=O)N1CCOCC1)N1CCOCC1,4%,-1.3,-2,-5,-194,
COc1ccc(C2/C(=C(\O)c3ccc4c(c3)OCCO4)C(=O)C(=O)N2c2nc(C)c(C(C)=O)s2)cc1 (centres undefined),.,0.5,.,0,.,
COc1ccccc1NC(=O)c1cc2c(=O)n(C)c3ccccc3c2n1C,1%,-0.7,.,44,.,
CN1CCN(Cc2nc3ccccc3c(=O)n2Cc2nc(-c3ccc4ccccc4c3)cs2)CC1,?,5.3,-35,97,4,
Cc1nc2cc3sc(C)nc3cc2s1,-1%,7.4,-4,-1,.,
CC1(C)CNC(=O)CC(C)(C)N1O,-13%,-1.5,1,0,-4,
O=C(Nc1ccccc1)c1ccc(S(=O)(=O)N2CCOCC2)cc1,-6%,12,1,-6,4,
Cc1cccc(NS(=O)(=O)c2cccc(C(=O)N3CCCC(C(F)(F)F)C3)c2)c1 (centres undefined),.,-1.9,.,-5,.,
N#CC1=C(N)Oc2n[nH]c(-c3cccs3)c2C1c1ccncc1 (centres undefined),-3%,60*,10,-4,.,
Cc1ccc(S(=O)(=O)c2nc(-c3ccccc3)oc2SCC(=O)NCC2CCCO2)cc1 (centres undefined),.,1.4,.,3,.,
CCOc1ccc(Cl)cc1S(=O)(=O)N1CCN(c2ccc(F)cc2)CC1,1%,9.8,0,-2,-20,
COc1ccc(C(=O)NCCN=C2NS(=O)(=O)c3ccccc32)cc1,.,1.4,.,8,.,
Nc1nc(-c2ccccc2)[nH]c(=O)c1N,-1%,-15,1,-2,25,
Cc1ccc(CNC(=O)C(Cc2ccccc2)n2cccc2)cc1 (centres undefined),0%,2.3,.,25,.,
O=C(CSc1nnc(-c2cccs2)n1-c1ccccc1)NCc1ccc2c(c1)OCO2,-4%,1.0,-4,-8,-10,
CCN(CC)S(=O)(=O)c1cccc(C(=O)N2CC(O)CC2C(=O)OC)c1 (centres undefined),1%,-7.5,-5,8,-33,
COc1ccc(C(CCNCc2ccc(OC(C)C)cc2)c2ccccc2OC)cc1 (centres undefined),.,19,.,100,.,
Cc1nc2ccccc2n1CC(O)c1ccccc1 (centres undefined),.,0.1,.,-12,.,
O=Cc1ccc(OC(=O)Cc2ccc(F)cc2)cc1,.,-0.3,.,4,.,
Cc1ccc(-c2cc(C(=O)NCCCN3CCOCC3)c3ccc(Cl)c(C)c3n2)cc1,.,0.8,.,100,.,
CC(NC(=O)c1ccc(Cl)cc1Cl)C(c1ccccc1)N1CCOCC1 (centres undefined),1%,1.8,7,-2,.,
Cc1cc(SCCOc2ccc(Br)cc2)nc(N)n1,12%,0.3,-5,1,-10,
O=C(Cn1nnc2ccccc21)OCC(=O)c1ccccc1,-8%,2.7,2,-13,-19,
COCCN1C(=S)N[C@@H](c2cccc(F)c2)C(C(=O)OC)=C1C,.,5.5,.,99,.,
CCn1c(SCc2cccc(OC)c2)nc2ccccc2c1=O,.,19,.,9,.,
COc1cccc(/C=N\NC(=O)c2ccc(Cn3cc(Br)c([N+](=O)[O-])n3)o2)c1O,-6%,-5.8,-32,10,.,
CCOC(=O)c1ccc(COC(=O)CNS(=O)(=O)c2ccccc2)cc1,1%,-2.8,1,-5,.,
CC1CCCN(c2nc3c(c(=O)[nH]c(=O)n3C)n2CCCc2ccccc2)C1 (centres undefined),8%,1.7,18,6,-13,
Cc1ccc(S(=O)(=O)CCN2C=CC(C(F)(F)F)=NCC2)cc1,-2%,2.9,.,1,.,
O=C(CCN1CCN(C/C=C/c2ccccc2)CC1)Nc1ccccc1F,-6%,0.4,4,-1,-24,
CC(C)CC(=O)Nc1cc2nn(-c3ccccc3)nc2cc1Cl,-5%,1.5,-9,-6,-5,
Cc1ccc(NC(=O)c2ccc(S(=O)(=O)N3CCOCC3)cc2)cc1,.,0.3,.,1,.,
Cc1noc(C)c1C(=O)Nc1ccccc1-c1ccccc1,-3%,-1.7,-6,-1,32,
COc1ccc(NC(=O)CCn2c(=O)c3cccn3c3ccccc32)cc1,.,-0.2,.,96,.,

# Reprinted at random: 7 compounds from above
SMILES,Mtb H37Rv,RecA intein inh,Arbovirus inh,Mtb bLac sens,YopH PTP inh,others
Cc1ccc(S(=O)(=O)CCN2C=CC(C(F)(F)F)=NCC2)cc1,-2%,2.9,.,1,.,
O=Cc1ccc(OC(=O)Cc2ccc(F)cc2)cc1,.,-0.3,.,4,.,
Cc1ccsc1/C=N/NC(=O)c1ccc2c(c1)OCCO2,20%,0.2,.,-10,.,
Nc1nc(-c2ccccc2)[nH]c(=O)c1N,-1%,-15,1,-2,25,
COc1ccc(C(=O)/C=C/c2ccc(-c3ccccc3)cc2)cc1CSCC(=O)O,.,26,.,17,.,
COc1ccc(C2/C(=C(\O)c3ccc4c(c3)OCCO4)C(=O)C(=O)N2c2nc(C)c(C(C)=O)s2)cc1 (centres undefined),.,0.5,.,0,.,
Cc1cc(SCCOc2ccc(Br)cc2)nc(N)n1,12%,0.3,-5,1,-10,

# The listing continues.
SMILES,Mtb H37Rv,RecA intein inh,Arbovirus inh,Mtb bLac sens,YopH PTP inh,others
Fc1ccc(CN2CCN(c3ncccn3)CC2)cc1,-2%,0.0,-6,11,-11,
Cc1ccc2c(c1)CCCN2C(=O)c1ccncc1,2%,-0.7,-3,68,5,
CCN(CC)S(=O)(=O)c1ccc2nc(CSc3nnnn3-c3ccc(O)cc3)[nH]c2c1,-3%,3.3,-1,?,-27,
COC(=O)NNC(=O)C(C)Oc1ccc(Cl)cc1Cl (centres undefined),3%,-1.2,-6,-2,5,
COc1cc(Nc2nc3ccc(Cl)cc3n3cnnc23)cc(OC)c1OC,.,-0.2,.,7,.,
CCOC(=O)C1=C(CSc2nc(CC)c(C)cc2C#N)OC(N)=C(C#N)C1c1ccc(OC)cc1 (centres undefined),0%,-6.1,-14,-2,-11,
Oc1cc(OCc2ccccc2)ccc1-c1[nH]ncc1-c1ccccc1,9%,20,.,58,.,
Cc1ccc(NC(=O)CN(C)S(=O)(=O)c2cccc3cccnc23)cc1F,.,-4.0,.,4,.,
c1csc(CNc2ncnc3sccc23)c1,1%,0.2,5,-4,-29,Arbovirus inh repeat=16
Clc1cccc(Cl)c1C1=NOC(c2nnc(-c3ccccc3)o2)C1 (centres undefined),-6%,3.5,.,22,.,
COCCCN=Cc1c(C)[nH]n(-c2ccc(Br)cc2Br)c1=O,4%,-2.7,-4,-4,.,
COc1cccc(CNC(=O)CCC(=O)N2Cc3cccc(OC)c3Oc3ncccc32)c1OC,.,-0.8,.,0,.,
O=C(O)c1cc(N=Nc2c(O)ccc3ccccc23)cc(C(=O)O)c1,2%,.,4,.,.,
C=CCN(CC=C)Cc1c(O)ccc2c1oc(=O)c1ccccc12,14%,.,.,11,-8,
Cc1cccc(NS(=O)(=O)c2ccc(C)c(C(=O)OCC(=O)Nc3cc(C)on3)c2)c1,-2%,5.0,2,-7,-1,
COc1ccc(-c2nnc(SCC(=O)Nc3cc(C)on3)n2N)cc1OC,-1%,0.8,2,8,-18,
CC(Oc1cc2oc(=O)c3c(c2cc1Cl)CCCC3)C(=O)NCCN1CCOCC1 (centres undefined),.,0.1,.,14,.,
Nc1nc2n(n1)C(c1ccccc1)CC(c1ccc(F)cc1)N2 (centres undefined),2%,-0.7,2,?,-28,Arbovirus inh repeat=4

# High-throughput results from PubChem.
